# Source: PubChem BioAssay
# GIV Gai3 FP – inhibitors of GIV peptide binding to Galpha-i3, primary screen, biochemical, fluorescence polarization, FITC-GIV GBA peptide, rat Galphai3; Guanine nucleotide-binding protein G(i) subunit alpha-3 (Rattus norvegicus), P08753; 90 min; stronger effect = lower value; scaled: aluminum fluoride 0%, vehicle 100%; percent of control (FP), % (concentration not given with the values); hit rate 0.42% among 210,000; AID 1224905, 2016;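 active = replicate mean at 85% of control or lower, very high polarization wells dropped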;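 note: wells of about 15 µL received 100 nL stock; the first replicate is given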
# Target sequence (P08753 whole entry, looked up): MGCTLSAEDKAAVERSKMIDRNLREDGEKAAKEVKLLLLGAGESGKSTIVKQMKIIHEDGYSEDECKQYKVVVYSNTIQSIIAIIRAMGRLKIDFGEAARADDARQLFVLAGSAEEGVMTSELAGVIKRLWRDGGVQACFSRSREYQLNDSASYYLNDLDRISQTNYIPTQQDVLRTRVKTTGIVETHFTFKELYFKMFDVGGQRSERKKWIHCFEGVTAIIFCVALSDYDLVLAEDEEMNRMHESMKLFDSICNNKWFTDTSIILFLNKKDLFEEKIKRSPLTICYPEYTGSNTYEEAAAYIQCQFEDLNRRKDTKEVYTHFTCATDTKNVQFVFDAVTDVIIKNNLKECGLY
# * = called active by the depositor. An excerpt; rates above refer to the full screens.
compound	GIV Gai3 FP
CCOC(=O)c1[nH]c(C)c(CN(Cc2ccc(C)cc2)S(=O)(=O)c2cnn(C(F)F)c2C)c1C	102
COc1ccc(NC(=O)c2ccc3c(=O)n(Cc4cccc(Br)c4)c(=S)[nH]c3c2)c(OC)c1	120
CC(C)Cc1ccc(C#N)c(SCc2nnc(-c3ccccc3)o2)n1	103
O=C(Cn1ncn2nc3c(c2c1=O)CCCC3)Nc1ccc(Br)cc1	122
CC(C)c1ccc(/C=c2/sc3n(c2=O)C(N)=C(C#N)C(c2ccc(C(C)C)cc2)C=3C#N)cc1 (centres undefined)	107
O=C(NCc1ccc(Br)cc1)C1CCN(c2ncc(-c3ccccc3)cn2)CC1	106
CCC(=O)OC1=C2C(=Nc3c(c(=O)n(C)c(=O)n3C)C2c2ccc(C)cc2)c2ccccc21 (centres undefined)	106
N#CSCC(=O)N1c2ccccc2Sc2ccc(C(F)(F)F)cc21	107
O=C1CN(Cc2cccc(Cl)c2)S(=O)(=O)c2ccccc2N1Cc1ccccc1	104
CC1(C)CC(=O)c2c(oc3ccc(NS(=O)(=O)c4ccccc4)cc23)C1	104
Cn1nnc(NCc2ccc(-c3ccc(Br)cc3)o2)n1	102
CCOC(=O)C1=C(C)N=c2s/c(=C/c3cc(Br)cc([N+](=O)[O-])c3O)c(=O)n2C1c1ccccc1 (centres undefined)	26*
COC(=O)c1sccc1NC(=O)CN1CCCN(Cc2cccc(C)c2)S1(=O)=O	111
CC(=O)Oc1ccc(/C=C2\N=C(c3ccc(-c4ccccc4)cc3)OC2=O)cc1OC(C)=O	110
CCc1cc(C2CCCN2Cc2ccncc2)on1 (centres undefined)	107

# Next section
compound	GIV Gai3 FP
CCN(CC)c1ccc(C2C3=C(CC(C)(C)CC3=O)OC3=C2C(=O)CC(C)(C)C3)c(OCc2ccc(Cl)cc2)c1	106
Cn1nc(-c2nc(C3CC3)no2)c2c1CCN(S(=O)(=O)c1ccc(F)cc1)C2	106
CCCc1cc(C2CCCN2Cc2ccc(C(=O)OC)cc2)no1 (centres undefined)	109
Cc1nc2n(c(=O)c1C)CCN2Cc1cccnc1	102
CC(C)c1csc(-c2csc(S(=O)(=O)NCc3ccc(Br)cc3)c2)n1	100
COCCCNc1nc(-c2ccc([N+](=O)[O-])cc2)nc2ccccc12	109
CCNS(=O)(=O)c1ccc2c(c1)N(Cc1noc(C3CCC3)n1)C(=O)CO2	102
Cc1nn(-c2ccc3nncn3n2)c(C)c1CCC(=O)Nc1ccc2c(c1)OCO2	102
O=C(NCC1CCCO1)c1ccc2ccnc(N3CCN(c4ccccc4)CC3)c2c1 (centres undefined)	106
COc1cc(C2Nc3ccccc3NC3=C2C(=O)CC(c2ccccc2)C3)cc(Br)c1OC (centres undefined)	111
O=S(=O)(Cc1noc(-c2ccc(F)cc2F)n1)c1ccc(Cl)cc1	100
CCN1CCN(CCNC(=O)c2cc3sc(C)c(CN4CCCCC4)c3[nH]2)CC1	106
COc1ccc(Cl)cc1NC(=O)CSc1nnc(C)s1	107
Cc1ccc(-c2nc(CSCC(=O)Nc3cccc(C)c3)no2)cc1	108
O=C1Nc2ccccc2Oc2cc(Oc3ccc(Br)cc3)c(S(=O)(=O)N3CCCC3)cc21	108

# (continued)
compound	GIV Gai3 FP
CC1(C)SC(=S)N(/N=C/c2ccco2)C1N(O)C(=O)Nc1ccc(Cl)c(Cl)c1 (centres undefined)	114
N#CC1=C([S-])N[C@@](O)(c2ccccc2)[C@H]([n+]2ccc3ccccc3c2)[C@H]1c1ccncc1	106
Cc1ccc(NC(=O)c2ccc(=O)n(CC(=O)N3CCOCC3)n2)cc1	101
CCC1(C)Cc2ccccc2-c2nc3n(c(=O)c21)CC(c1ccccc1)S3 (centres undefined)	108
COc1ccc(CC(=O)N(C)CCc2noc(C(=O)NCc3ccccc3)n2)cc1	102
Cc1cc(N2CCOCC2)nc(Nc2ccc(NS(C)(=O)=O)cc2)n1	105
CC(C)C12CN3CC(C(C)C)(CN(C1)C3c1ccccc1Cl)C2=O (centres undefined)	118
O=C(CC1(O)C(=O)Nc2ccccc21)c1cccc(-n2cccc2)c1 (centres undefined)	106
CC(=O)Oc1ccc(/C=C2\N=C(c3ccc([N+](=O)[O-])cc3Cl)OC2=O)cc1OC(C)=O	114
CCOC(=O)C1=C(N)OC2=C(C(=O)CC(C)(C)C2)C1c1ccc(Cl)cc1Cl (centres undefined)	110
Cc1ccc(C2C3=C(Nc4c2c(=O)[nH]c(=O)n4C)c2ccccc2C3=O)cc1 (centres undefined)	110
Cc1[nH]n(-c2ccccc2)c(=O)c1C(c1ccccc1F)c1c(C)[nH]n(-c2ccccc2)c1=O	88
CN(C)S(=O)(=O)c1ccc(-c2noc(C(=O)NCCc3nc4ccc(F)cc4[nH]3)n2)cc1	109
CCc1ccc(-n2c(SCC(=O)Nc3cc(OC)ccc3OC)nc3n[nH]c(C)c3c2=N)cc1	116
Cc1nc(-c2ccccc2)sc1C(=O)Nc1ccc(-n2c(C)nc3ccccc3c2=O)cc1	99

# Among those listed so far, five contain two or more sulfur atoms.
compound	GIV Gai3 FP
N#CSCC(=O)N1c2ccccc2Sc2ccc(C(F)(F)F)cc21	107
COC(=O)c1sccc1NC(=O)CN1CCCN(Cc2cccc(C)c2)S1(=O)=O	111
CC(C)c1csc(-c2csc(S(=O)(=O)NCc3ccc(Br)cc3)c2)n1	100
COc1ccc(Cl)cc1NC(=O)CSc1nnc(C)s1	107
CC1(C)SC(=S)N(/N=C/c2ccco2)C1N(O)C(=O)Nc1ccc(Cl)c(Cl)c1 (centres undefined)	114

# As a short view, 2 of the compounds above.
compound	GIV Gai3 FP
CCc1ccc(-n2c(SCC(=O)Nc3cc(OC)ccc3OC)nc3n[nH]c(C)c3c2=N)cc1	116
Cc1nc(-c2ccccc2)sc1C(=O)Nc1ccc(-n2c(C)nc3ccccc3c2=O)cc1	99

# Remaining list, next part
compound	GIV Gai3 FP
Cc1ccc(NC(=O)c2ccc(F)c(S(=O)(=O)N3CCC(Cc4ccccc4)CC3)c2)cc1F	106
CCOC(=O)C1=C(C)OC(N)=C(C#N)C1c1ccc(-c2ccccc2)cc1 (centres undefined)	110
O=C(Nc1ccc(S(=O)(=O)N2CCCCC2c2cccnc2)cc1)c1ccccc1 (centres undefined)	106
CCOC(=O)CSc1nc2sc(C(=O)OCC)c(C)c2c(=O)n1Cc1ccco1	111
O=C(NN=C1CSc2sc(=O)sc2SC1)c1ccncc1	105
COCCn1c(SCc2nc(-c3ccc(OC)cc3)no2)nc2cc3c(cc2c1=O)OCO3	108
CC(=O)N1CCc2sc(C(=O)NCCCN3CCCC3=O)cc2C1	102
CC(C)C(C(=O)OCC(=O)c1ccc([N+](=O)[O-])cc1)N1C(=O)C2C3C=CC(C3)C2C1=O (centres undefined)	98
CC(C)c1cc(C2CCCN2C(=O)Nc2ccc3c(c2)OCO3)no1 (centres undefined)	107
CC1(C)CC(n2c(=S)[nH]c3c(c2=O)C2(CCCC2)Cc2ccccc2-3)CCO1 (centres undefined)	110
CN(CC1COCCO1)c1ccc(NC(=O)c2ccccc2F)cc1C(=O)O (centres undefined)	108
O=C(CSc1nc2ccc(Nc3nc(N4CCOCC4)nc(N4CCOCC4)n3)cc2s1)NCc1ccccc1	117
COC(=O)c1ccc(NC(=O)N2CCOc3ccc(COCc4ccc(C)cc4)cc3C2)cc1	107
CC1CCN(C(=O)C2CCN(c3cncnc3N3CCN(C)CC3)CC2)CC1	99
O=C(Cn1ncc2c(N3CCCC3)ncnc21)NC1CC1	105

# Going on with the list.
compound	GIV Gai3 FP
CC(=O)N(Cc1ccccc1)c1nc2ccccc2n(CC(=O)Nc2ccc(Cl)cc2)c1=O	103
COc1ccc(OC)c(N2C(=N)/C(=C(/O)c3ccccc3)C(c3ccc4c(c3)OCO4)C3=C2CC(C)(C)CC3=O)c1 (centres undefined)	133
Cc1ccc(S(=O)(=O)c2cnc(N3CCN(c4cc(Cl)ccc4C)CC3)nc2N)cc1	108
COCCNc1nc(SCC(=O)Nc2cccc(OC)c2)nc2ccccc12	106
COc1ccc(CNS(=O)(=O)c2cc(/C=C\c3onc(C)c3NC(C)=O)ccc2C)cc1	101
CCc1onc(C)c1C1CCCN1Cc1ccc(F)c(F)c1 (centres undefined)	106
COc1cccc(CNC2=NCCNC23CCCCCC3)c1	109
CC(C)(NC(=O)c1ccoc1)c1nc2c(c(C(N)=O)n1)OCO2	102
O=C1C(=O)N(CCN2CCOCC2)C(c2ccc(F)cc2)/C1=C(\O)c1ccccc1 (centres undefined)	109
COC(=O)c1c(-c2ccccc2)noc1NCc1cccc(Br)c1	103
COc1ccccc1/C=C/C=C1\N=C(c2cc(Br)ccc2OC)OC1=O	114
COc1cc(Cl)c(NS(=O)(=O)c2c(C)sc(C)c2-c2cc(C(F)(F)F)on2)c(OC)c1	103
CCC(=O)N1CCc2cc(-c3ccc(C(=O)NCCc4c[nH]c5ccc(OC)cc45)cc3)ccc21	98
CC1CCN(S(=O)(=O)c2nn(C)cc2C(=O)NCCc2cccs2)CC1	103
O=C(Nc1ccccc1)C1CCCN(c2ncnc3c2oc2ccccc23)C1 (centres undefined)	106

# Next results
compound	GIV Gai3 FP
CCc1ccc(S(=O)(=O)N2CCCN(S(=O)(=O)c3ccc(CC)cc3)CC2)cc1	114
Cc1ccc(COc2ccc(C(c3c(C)[nH]n(-c4ccccc4)c3=O)c3c(C)[nH]n(-c4ccccc4)c3=O)cc2)cc1	115
CCCCOc1ccc(-c2nc(C=Nc3ccc(Cl)c([N+](=O)[O-])c3)c(O)o2)cc1	116
O=C(Cn1c(=O)ccc2cc(S(=O)(=O)N3CCCC3)ccc21)N1CC=C(c2ccccc2)CC1	106
S=c1n(CN2CCC3(CC2)OCCO3)nc(-c2ccccc2)n1-c1ccccc1	109
CCCCN(CC)C(=O)C1CCN(c2ncnc3c2oc2ccccc23)CC1	117
Cc1ccc(C2C(C#N)=C(SCC(=O)Nc3cccc(Cl)c3)NC3=C2C(=O)CCC3)o1 (centres undefined)	108
COc1ccc(NS(=O)(=O)c2cc(-c3noc(C(=O)N4CCCC4)n3)cs2)cc1OC	100
O=C(NC1CCCCC1)N1CCN(Cc2nc3cccnc3n2-c2ccc(F)cc2)CC1	109
COc1cc2c(cc1OC)C(Nc1ccc(F)c(F)c1)=NC1(CCCC1)C2	106
CON1C(=O)CN(C(=O)c2ccccc2)C1c1ccc(Cl)cc1Cl (centres undefined)	109
Cc1cccc(-c2noc(-c3nn(-c4cccc(F)c4)ccc3=O)n2)c1	111
O=S(=O)(c1ccc2c(c1)-c1oncc1CO2)N1CCN(c2ccc(Cl)cc2)CC1	94
COc1cc(C(=O)N2c3ccccc3Sc3ccc(C(F)(F)F)cc32)cc(OC)c1OC	110
c1ccc(-c2nc3cc4ccccc4cc3nc2-c2cccs2)cc1	111

# Reformatted with the structure last: part of the list above
GIV Gai3 FP,mol
110,CCOC(=O)C1=C(C)OC(N)=C(C#N)C1c1ccc(-c2ccccc2)cc1 (centres undefined)
104,CC1(C)CC(=O)c2c(oc3ccc(NS(=O)(=O)c4ccccc4)cc23)C1

# Additional compounds follow.
compound	GIV Gai3 FP
Cc1ccc(N2CC(C(=O)NCc3nnnn3-c3ccccc3)CC2=O)cc1 (centres undefined)	109
Nc1c(C(=O)c2ccccc2)sc2nc(-c3ccccc3)cc(C(F)(F)F)c12	101
COc1ccc(NC(=O)Cn2c(=O)ccc3cc(S(=O)(=O)N4CCCC4)ccc32)cc1	101
O=C(Nc1ccc(F)cc1)c1nnc(C2CCCN(C(=O)Nc3cccc(Cl)c3)C2)s1 (centres undefined)	107
CNc1nnc(-c2cc3cccc(OC)c3oc2=O)s1	100
CCc1onc(C)c1C1CCCN1C(=O)c1ccn(C)n1 (centres undefined)	98
COc1ccc(S(=O)(=O)n2c(SCc3ccc(Cl)cc3)nc3ccccc32)cc1	106
CC(C)(C)C(=O)[C@@H]1[C@H]2C3COC(O3)C(=O)[C@@H]2[C@H]2C=Cc3ccccc3N21 (some centres undefined)	87
CCCCCCc1cc2cc(-c3cc4c(c(C)[nH]3)c(=O)oc3cc(=O)c(CCCCCC)cc34)c(=O)oc2cc1O	140
CN(C)C(=O)C12CCC(C)(C(=O)O1)C2(C)C (centres undefined)	106
O=C(c1cccnc1)N1CCc2c([nH]c3ccccc23)C1c1ccccc1 (centres undefined)	100
CCOC(=O)C1=c2s/c(=C/c3ccccc3F)c(=O)n2C(N)=C(C#N)C1c1ccccc1F (centres undefined)	102
c1ccc2c(c1)Cc1cc3ccccc3nc1-2	110
O=C(NCc1ccnc(N2CCCCC2)c1)Nc1ccc(F)c(Cl)c1	107
O=C(COC(=O)c1cc2c3c(c1)C1C=CCC1CN3CC1CC=CC21)c1ccc(Cl)cc1 (centres undefined)	106

# More compounds follow.
compound	GIV Gai3 FP
CC1CN2c3ccccc3C(C)(C)C2(/C=C/c2ccc(N(C)C)cc2)NC1=O (centres undefined)	108
CCOc1ccc(NC(=O)CSc2nnc(NC(=O)c3ccccc3C(F)(F)F)s2)cc1	110
COc1cccc(-c2nc3sc4c(c3c(=O)n2CC(=O)Nc2ccc(C)c(Cl)c2)CCCC4)c1	119
C=CCN1C(=O)/C(=C2\SC(N3CC(C)OC(C)C3)=NC2=O)c2cc(Br)ccc21 (centres undefined)	112
CCCCCCCCCCNS(=O)(=O)c1cc2c(c([N+](=O)[O-])c1)-c1c(cc(S(=O)(=O)NCCCCCCCCCC)cc1[N+](=O)[O-])C2=NO	110
O=C(c1csc(S(=O)(=O)NC2CCCC2)c1)N1CCCC1	98
Cc1ccc(N/C(SCc2cccc([N+](=O)[O-])c2)=C(/C#N)C(=O)NCc2ccco2)cc1C	107
Cc1nc(N(C)c2ccc(C(C)C)cc2)c2c(C)c(C(=O)N3CCOCC3)sc2n1	98
CCOC(=O)CSc1nc(N2CCOCC2)c2c(c1C#N)CCCC2	103
NS(=O)(=O)c1ccc(NS(=O)(=O)c2ccc3onc(C(=O)N4CCCC4)c3c2)cc1	103
